Source: PubChem BioAssay (National Center for Advancing Translational Sciences (NCATS))
D2 potentiator: human D2 receptor positive allosteric modulation | P14416 | DiscoveRx D2 beta-arrestin cells, luminescence, 90 min; 100% = 57 uM dopamine signal | potentiation, % (test concentration not listed) | hit rate 0.23% among 360,000; active = potentiation of 50% or more; inconclusive = 30% to 50%; inactive = 30% or less;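 also: compound concentration not given in the record; tested on top of an EC20 dose of dopamine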
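D2 cells co-treated with compound plus 50 nM dopamine (EC20) for 90 min at 37 deg C to detect potentiation. Beta-arrestin recruitment was read as enzyme-fragment luminescence after 1 h at ambient temperature. Full response was set by 57 uM dopamine.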
D2 agonist: activates the human D2 dopamine receptor. P14416. DiscoveRx PathHunter D2 beta-arrestin, luminescence, 90 min; 100% = 57 uM dopamine signal. activation, % (no concentration beside the values). hit rate 0.084% among 360,000. AID 624465; in the data active = activation above about 40%; inconclusive = about 15% to 40%; inactive = below about 15%; also: compound concentration not given in the record; the text of the record calls up to 30% inactive
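DiscoveRx PathHunter D2 beta-arrestin cells (2,100/well) attached overnight, then compound-stimulated 90 min at 37 C in HBSS/10 mM HEPES/0.1% Tween-20 buffer; beta-galactosidase complementation read by luminescence after 1 h at ambient temperature. Dopamine 57 uM final (EC100) as control.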
gsp antag: antagonizes gsp, the McCune-Albright syndrome mutation | gsp-mutant cells, cAMP HTRF, 30 min; control for the full effect not named in the record | AID 624288 | hit rate 0.4% among 340,000 | Potency, µM (top dose mostly 76.9 µM), inactives show at the top dose activity change, negative = inhibition, usual class: inhibitors; active = falling curve of any shape with a large fitted effect; inconclusive = falling curve, mostly with a smaller effect; inactive = flat or rising curve; cell line not stated here;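 also: intracellular cAMP measured with PDE inhibitor Ro 20-1724 present during compound exposure; potency is read from the fitted curve at half-maximal effect; % is scaled to controls: 0 for no effect and ±100 for the full control effect; nearly all actives have a fitted effect of over 65% in size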
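Cells in G418 medium, seeded 16-24 h, 37C; buffer exchange to DPBS + 1 mM CaCl2, 0.5 mM MgCl2, 0.05% BSA; cpds in DMSO + […] (300 uM stock), 30 min 37C; HTRF cAMP detection.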
CtBP-E1A blk: CtBP/E1A binding inhibition; hit rate 0.49% among 340,000; activity change, % (test concentration not listed); AID 651724; AlphaScreen GST-E1A/His-CtBP binding, 1536-well; stronger effect = lower value; control for the full effect not named in the record; in the data active means activity change below about -65%; inconclusive means about -30% to -65%; inactive means above about -30%; also: % is scaled to controls: 0 for no effect and ±100 for the full control effect; compound concentration not given in the record
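Protein mix (5X: 125 nM each GST-E1A, His-CtBP) was incubated with pinned compound 2 h at 37 deg C in dark, in 50 mM Tris pH 8.0 buffer with 300 mM NaCl. Glutathione donor and nickel acceptor beads followed; AlphaScreen signal read after 1 h.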
Six1-Eya2 blk: Six1/Eya2 interaction inhibition; hit rate 0.56% among 360,000; activity change, % (test concentration not listed); AlphaScreen GST-Six1/His-Eya2 binding, biochemical; stronger effect = lower value; control for the full effect not named in the record; Q15475+O00167; in the data active = activity change below about -65%; inconclusive = about -30% to -65%; inactive = above about -30%; also: % is scaled to controls: 0 for no effect and ±100 for the full control effect; compound concentration not given in the record
Target sequence (O00167 whole entry, looked up): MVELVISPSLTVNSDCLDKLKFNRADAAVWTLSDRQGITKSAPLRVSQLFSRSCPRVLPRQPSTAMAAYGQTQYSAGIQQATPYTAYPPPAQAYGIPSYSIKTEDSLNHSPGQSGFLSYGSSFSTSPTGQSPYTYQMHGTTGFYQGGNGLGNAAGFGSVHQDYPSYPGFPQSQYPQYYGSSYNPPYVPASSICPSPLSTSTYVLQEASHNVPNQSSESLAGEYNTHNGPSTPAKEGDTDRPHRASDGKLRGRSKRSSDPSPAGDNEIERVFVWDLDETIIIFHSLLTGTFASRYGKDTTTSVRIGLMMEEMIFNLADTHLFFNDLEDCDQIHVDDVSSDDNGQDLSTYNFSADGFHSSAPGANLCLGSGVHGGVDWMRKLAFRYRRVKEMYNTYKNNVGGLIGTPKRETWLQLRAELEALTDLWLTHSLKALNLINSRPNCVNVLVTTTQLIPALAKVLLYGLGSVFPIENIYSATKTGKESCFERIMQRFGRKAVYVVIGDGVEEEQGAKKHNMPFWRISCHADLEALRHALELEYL
Target sequence (Q15475 whole entry, looked up): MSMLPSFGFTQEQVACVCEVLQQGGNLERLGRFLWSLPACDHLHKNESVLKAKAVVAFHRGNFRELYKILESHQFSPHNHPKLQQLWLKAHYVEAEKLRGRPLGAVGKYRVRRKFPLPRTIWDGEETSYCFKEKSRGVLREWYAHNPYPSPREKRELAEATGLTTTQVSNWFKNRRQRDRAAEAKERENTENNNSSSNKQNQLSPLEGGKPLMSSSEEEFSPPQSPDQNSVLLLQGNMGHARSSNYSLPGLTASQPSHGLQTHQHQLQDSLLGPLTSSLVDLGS
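AlphaScreen with GST-Six1 and His-Eya2 (5X mix: 250 nM and 500 nM), glutathione donor and nickel acceptor beads; buffer 50 mM Tris pH 8.0, 300 mM NaCl, 1 mM TCEP; 1 h at 37 C in the dark.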
gsp agonist: activates gsp, the McCune-Albright syndrome mutation; gsp mutant cells, cAMP HTRF, 30 min; control for the full effect not named in the record; Potency, µM (top dose mostly 76.9 µM), without a hit: at the top dose activation (cAMP increase), usual class: activators; hit rate 0.13% among 340,000; AID 624287; active = well fitted activation curve with a large enough effect; inconclusive = small, poorly fitted or top-dose-only effect, or another doubt; inactive = no such curve, though single readings can be large or run the other way; cell line not stated here;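 also: phosphodiesterase inhibitor Ro 20-1724 added with compounds to block cAMP breakdown; potency is read from the fitted curve at half-maximal effect; nearly all actives have a fitted effect of over 60% in size; about a fifth of the inactives were tested at one dose only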
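Cells in DMEM/10% FBS with G418 were pretreated with compounds in DMSO plus […] (300 uM stock) for 30 min at 37C. cAMP was measured by HTRF (cAMP-d2 plus anti-cAMP antibody-K) after 30 min at room temperature.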
* hit, by the source's call; ? = inconclusive; . = not tested or not shown; [ ] = another dose, or the depositor's remark.

SMILES | D2 potentiator | D2 agonist | gsp antag | CtBP-E1A blk | Six1-Eya2 blk | gsp agonist
Cc1ccc(-c2nc(CS(=O)(=O)CC(=O)NCCCN(Cc3ccccc3)C(C)C)c(C)o2)cc1 | -8 | -0.4 | 18% | -7 | -7 | 8%
O=C(O)CN1C(=O)/C(=C\c2ccccc2OCc2ccc(F)cc2)SC1=S | -8 | 2.9 | ? | -1 | 0 | 23%
Cc1ccc(C)c(N2CCN(C(=O)CCNC(=O)Cn3ccc4ccccc4c3=O)CC2)c1 | 6 | -3.8 | -17% | -2 | 5 | ?
Cc1ccc(S(=O)(=O)N2[C@@H](c3ccc(C(C)(C)C)cc3)C(C(=O)O)=CC[C@H]2c2ccc(C(C)C)cc2)cc1 | . | 5.0 | -23% | 0 | -18 | .
COc1ccc(C(=O)O)cc1S(=O)(=O)Nc1ccccc1Cc1ccccc1 | -8 | -0.9 | ? | -1 | -4 | 25%[15.4 µM]
CCN(CC(=O)NCc1ccc(F)cc1)C(=O)/C=C/c1ccc(OC)cc1 | -2 | 1.5 | -23% | 4 | 4 | 12%
Cc1cccc(C(=O)Nc2ccc(C(=O)c3ccncc3)cc2)c1 | -16 | -0.4 | . | -1 | -4 | -40%[inhibitor]
O=C(CSc1nnc(Nc2ccccc2F)s1)NC1CC1 | 1 | 5.1 | 4% | 4 | -2 | 25%
CCOC(=O)c1ccc(N2C(=O)CC(N(Cc3ccc4c(c3)OCO4)C(=O)Nc3ccccc3)C2=O)cc1 (stereo not drawn) | -15 | -3.1 | -17% | -6 | -4 | -47%[inhibitor]
c1coc(-c2nc3nc4ccccc4nc3n2-c2ccc3c(c2)OCCO3)c1 | 12 | -1.7 | 9% | -1 | 6 | 4%
CNc1oc(-c2ccc(C)cc2)nc1P(=O)(c1ccccc1)c1ccccc1 | -33 | -3.4 | -9% | -13 | -5 | 6%
COC(=O)C1=NN(c2ccc(C)cc2)C2(S1)SC(C(C)=O)=C(C)N2c1ccccc1 (stereo not drawn) | 1 | -0.4 | 9% | 1 | -2 | 11%
NS(=O)(=O)c1ccc(NC(=S)NC2CCCCCC2)cc1 | 12 | 2.1 | 6% | -1 | 4 | 8%
Cc1ccccc1NC(=O)COc1ccc(Br)cc1C | -2 | -5.2 | 1% | -10 | 11 | 0%[15.4 µM]
CN(Cc1ccccc1)S(=O)(=O)c1ccc(OCC(=O)Nc2cccc([N+](=O)[O-])c2)cc1 | 1 | -0.8 | 5% | -8 | 8 | 4%
Cc1cc(NC(C)c2ccccc2)n2ncc(-c3ccccc3)c2n1 (stereo not drawn) | 19 | 2.6 | -18% | 36 | 36 | 3%
Nc1ccccc1SCC1CSc2nc3ccccc3c(=O)n21 (stereo not drawn) | -6 | 6.7 | -7% | 3 | 12 | 37%
Cc1cccc(CNC(=O)c2ccc3nc(Cc4ccccc4F)oc3c2)n1 | 5 | -2.3 | -6% | -7 | -1 | -57%[inhibitor]
CC(=O)N1CCN(Cc2nc3cc(NC(=O)COc4ccccc4)ccc3n2C)CC1 | 11 | -2.7 | 13% | 13 | -1 | -10%[15.4 µM]
COc1ccc(OC)c(S(=O)(=O)N2CCC(C(=O)Nc3cccc(C(F)(F)F)c3)CC2)c1 | -14 | 1.5 | ? | -1 | -8 | -3%
Cc1cccc(C)c1NC(=O)CNC(=O)c1ccc(N2CCOCC2)c([N+](=O)[O-])c1 | -26 | -3.9 | . | -4 | -1 | 1%
O=C1C2(c3ccccc3)CN(CCO)CC1(c1ccccc1)CN(CCO)C2 | -21 | -0.5 | 6% | 3 | -6 | 1%
O=c1cc(Cl)c(-c2ccccc2)nn1Cc1ccc(Cl)cc1 | -4 | 6.3 | -31% | 7 | 10 | -6%[15.4 µM]
COc1ccc(Nc2oc(-c3ccccc3F)nc2C#N)cc1 | 24 | -1.0 | -4% | -1 | 1 | -4%[15.4 µM]
CCCc1nnc(SCC(=O)Nc2ccccc2Cl)n1CC1CCCO1 (stereo not drawn) | 1 | 5.9 | 4% | -10 | 1 | 22%
O=C(CNC(=O)C1CCCCC1)Nc1ccccc1Cl | -2 | -1.5 | 5% | 6 | 1 | -49%[inhibitor]
Cn1c(SCc2ccc([N+](=O)[O-])cc2)nnc1-c1ccncc1 | -1 | 2.4 | 3% | -10 | 6 | 12%
NC(=O)C1CCN(Cc2cccc(OCc3ccccc3)c2)CC1 | -10 | 2.0 | 11% | 1 | -13 | 1%[15.4 µM]
Cc1ccc(N(CC(=O)N2CCc3ccccc32)S(=O)(=O)c2cccs2)cc1 | -9 | -1.6 | -15% | 5 | -2 | -40%
Cc1n[nH]c(=O)c2c(NC(=O)CSc3nnc(-c4ccncc4)n3C)oc(C)c12 | -21 | -1.3 | 13% | 2 | -3 | ?
Cc1ccc(CN2CCN(Cc3cnc(N4CCOCC4)s3)CC2CCO)o1 (stereo not drawn) | -1 | -1.0 | 14% | 0 | -1 | -117%[inhibitor]
CCCc1cc(C(=O)NNC(=S)NCc2ccccc2)cs1 | -4 | -4.1 | -8% | -1 | -4 | 20%
S=C(Nc1cccc(Cl)c1Cl)Nn1cnnc1 | -16 | -1.4 | -3% | -14 | 6 | 6%
COc1ccc(-n2c(SCC(=O)N(C)C3CCS(=O)(=O)C3)nc3ccc(O)cc3c2=O)cc1OC (stereo not drawn) | 0 | 0.6 | 10% | 1 | 9 | -7%
COc1ccc(Nc2nc(N)nc(CCl)n2)cc1 | -8 | 3.4 | 6% | . | 5 | 20%
COc1c(Cl)cc(Cl)cc1C(=O)Nc1ccc(CN2CCOCC2)cc1 | -4 | -6.1 | -4% | -1 | 2 | ?
CCOc1ccc(OCCOc2ccc(/C=C/C(=O)O)cc2OCC)cc1 | 2 | -0.6 | 20µM* | -2 | -6 | 25%[15.4 µM]
Cn1c(=O)c(=O)n(C)c2cc(N3CCCCC3)c(NS(=O)(=O)c3ccc(Br)cc3)cc21 | 5 | -2.3 | ? | -17 | -20 | ?
COc1ccc(CC(=O)O/N=C(\N)Cc2ccc([N+](=O)[O-])cc2)cc1 | 17 | -2.2 | 10% | 4 | -15 | -1%[15.4 µM]
CC1CCCCC1NC(=O)c1ccc2c(c1)OCCO2 (stereo not drawn) | -14 | -1.8 | 24% | 20 | 1 | -33%[inhibitor]
O=C(C1CCCCC1)N1CCCc2ccccc21 | 1 | -3.4 | -1% | 7 | 5 | -10%
Cc1ccc(S(=O)(=O)NC(=NC2CCCCC2)c2ccc(Cl)cc2)cc1 | -8 | -2.5 | 6% | 5 | 3 | -1%[15.4 µM]
COC(=O)COc1ccc(C2Nc3c(Cl)ccc(C(=O)O)c3C3C=CCC32)cc1 (stereo not drawn) | -3 | -0.2 | -16% | -18 | ? | -8%[15.4 µM]
O=C(CCc1ccccc1)NC(NC(=S)Nc1ccc(Cl)cc1)C(Cl)(Cl)Cl (stereo not drawn) | -9 | -0.5 | 28% | 1 | 22 | -16%
COc1ccc(C(=O)N/N=C/c2ccc3cccc(O)c3n2)cc1 | -6 | -1.6 | 5% | -22 | ? | 19%
NC(=O)c1ccsc1NC(=O)CSc1ncnc2sccc12 | 14 | 7.8 | 9% | -14 | -23 | ?
Cc1ccccc1N(CC(=O)Nc1ccc(S(=O)(=O)N2CCOCC2)cc1)S(C)(=O)=O | -7 | 0.0 | -16% | -24 | 2 | 2%[15.4 µM]
COc1ccc(CCNC(=O)CN2CCN(Cc3ccccc3F)C2=O)cc1OC | 0 | -1.5 | 3% | 6 | 9 | 30%[15.4 µM]
COc1ccc(C[C@@H]2OC3(C=CC(=O)C=C3)O[C@H]2Cc2ccc(OC)cc2)cc1 | -45 | -8.0 | -10% | 2 | -28 | -14%
Cc1cc(=O)n2[nH]c(SCc3ccccc3)nc2n1 | -5 | -0.8 | -2% | 2 | 0 | 0%
C/C(=N\Nc1ccc(S(N)(=O)=O)cc1[N+](=O)[O-])c1ccc2c(c1)OCO2 | 2 | -0.5 | -21% | ? | ? | 6%[15.4 µM]
COc1ccc(Cl)cc1NC(=O)CN(C)C(=O)CN1C(=O)NC(C)(c2ccc3ccccc3c2)C1=O (stereo not drawn) | -4 | 1.2 | ? | -17 | -2 | 2%
CC(CC(=O)NCc1ccc(F)cc1)c1ccccc1 (stereo not drawn) | 0 | -2.4 | 12% | 8 | -2 | -10%[15.4 µM]
COc1ccc(/C=C(/C#N)S(=O)(=O)c2ccc(C)cc2)cc1 | -4 | -0.1 | ? | -1 | 1 | 19%
Fc1ccc(Nc2nnc(C(F)(F)F)s2)cc1Cl | -3 | 3.8 | -5% | -1 | 1 | -11%[15.4 µM]
CC(=O)C1=C(C)NC(SCC(N)=O)=C(C#N)C1c1cccnc1 (stereo not drawn) | 7 | 0.4 | 0% | -9 | -2 | 19%
O=[N+]([O-])c1ccccc1S(=O)(=O)N/C(=N/S(=O)(=O)c1ccccc1)c1ccccc1 | -6 | -3.0 | 6% | 0 | 14 | -27%
O=c1oc(C2(O)CCCCC2)cc2ccc(Br)cc12 | -10 | -0.3 | 6% | -3 | 2 | .
O=C(Nc1ccccc1Cl)c1ccccc1Cc1ccccc1 | -9 | -3.4 | -8% | 32 | 21 | -48%[inhibitor]
Cc1ccc(C(=O)Nc2nnc(-c3ccco3)o2)cc1 | -12 | -1.5 | 8% | -12 | -21 | -48%[inhibitor]

2 compounds drawn at random from the list so far:
SMILES | D2 potentiator | D2 agonist | gsp antag | CtBP-E1A blk | Six1-Eya2 blk | gsp agonist
c1coc(-c2nc3nc4ccccc4nc3n2-c2ccc3c(c2)OCCO3)c1 | 12 | -1.7 | 9% | -1 | 6 | 4%
COc1ccc(C(=O)N/N=C/c2ccc3cccc(O)c3n2)cc1 | -6 | -1.6 | 5% | -22 | ? | 19%

(listing goes on)
SMILES | D2 potentiator | D2 agonist | gsp antag | CtBP-E1A blk | Six1-Eya2 blk | gsp agonist
NCCc1nnc(SCC(=O)c2ccc(Cl)cc2)o1 | -6 | 1.3 | 0% | -3 | 3 | 9%[15.4 µM]
CCOC(=O)c1ccc(NS(=O)(=O)c2ccc(SC)cc2)cc1 | 4 | 1.9 | -21% | 3 | 0 | -34%
COc1cc2oc(=O)cc(-c3ccc(-c4ccc(C#N)cc4)cc3)c2c(OC)c1OC | . | -0.4 | -10% | -24 | 1 | .
O=C(CSc1nnc(-c2ccccc2)o1)N1CCCC1 | -9 | -3.5 | 2% | -6 | 5 | -11%[15.4 µM]
CCCCn1c(N)c(N(CCOC)C(=O)C2CCCN(C(=O)c3ccc(Cl)cc3)C2)c(=O)[nH]c1=O (stereo not drawn) | 1 | -4.5 | 0% | 6 | 9 | 21%[15.4 µM]
CCN1CCN(S(=O)(=O)Cc2ccccc2)CC1 | -8 | -2.1 | 5% | -3 | -1 | -6%
CCOc1ccc(Br)cc1S(=O)(=O)Nc1ccc(NC(=O)c2ccccc2F)cc1 | 16 | 0.3 | 0% | 7 | 1 | 7%
